GALR2 ag = activates the human galanin receptor 2; O43603; GALR2-expressing cells, agonist activation read-out; activation, %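 (tested at 5 µM)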; 140,000 tested, 0.48% active;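 active means above mean plus 3 SD of all compounds, about 5% in these data, not always enough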;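 further: 0% = vehicle buffer wells and 100% = reference agonist at full effect; tested in CHO reporter cells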
Target sequence (O43603 whole entry, looked up): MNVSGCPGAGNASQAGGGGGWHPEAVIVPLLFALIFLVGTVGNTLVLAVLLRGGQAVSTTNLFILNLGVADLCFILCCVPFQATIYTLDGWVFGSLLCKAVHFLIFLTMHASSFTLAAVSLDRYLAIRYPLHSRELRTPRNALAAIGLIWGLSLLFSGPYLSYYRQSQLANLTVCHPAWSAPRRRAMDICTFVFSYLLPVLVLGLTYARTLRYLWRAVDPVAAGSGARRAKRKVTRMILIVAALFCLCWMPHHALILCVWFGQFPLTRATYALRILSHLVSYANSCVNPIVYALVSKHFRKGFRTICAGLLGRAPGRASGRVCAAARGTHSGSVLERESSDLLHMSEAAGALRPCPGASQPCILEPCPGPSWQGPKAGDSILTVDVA
INS promoter inh = TRM-6 insulin promoter activity inhibition; 130,000 tested, 0.9% active; inhibition, % at 2 µM; TRM-6 cells (human fetal islet line), insulin promoter-eGFP reporter, imaging; reporter expression induced with tamoxifen;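 active means inhibition above the mean plus 3 SD, with well images judged a real hit on visual review, cut at about 60% in these data, passing the limit was not always enough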
RGS16-Gao = modulates binding between human RGS16 and Galphao; O15492+P09471; bead-based flow cytometry RGS16-Galphao binding, fluorescence; actives lie on both sides; binding response (% of control), % at 10 µM; 220,000 tested, 0.38% active;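 active means below 25% or above 175%, edge rows of some plates excepted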;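 further: Galphao activated by GDP with aluminum fluoride before binding; 100% = wells without compound and 0% = beads without RGS; some results beyond the cut were filed as inactive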
Target sequence (O15492 whole entry, looked up): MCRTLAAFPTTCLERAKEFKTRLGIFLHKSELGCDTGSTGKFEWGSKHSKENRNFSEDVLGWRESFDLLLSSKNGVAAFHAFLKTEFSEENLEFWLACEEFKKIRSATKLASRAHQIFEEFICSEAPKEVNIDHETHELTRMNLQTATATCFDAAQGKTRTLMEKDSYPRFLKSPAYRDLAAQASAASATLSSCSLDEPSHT
Target sequence (P09471 whole entry, looked up): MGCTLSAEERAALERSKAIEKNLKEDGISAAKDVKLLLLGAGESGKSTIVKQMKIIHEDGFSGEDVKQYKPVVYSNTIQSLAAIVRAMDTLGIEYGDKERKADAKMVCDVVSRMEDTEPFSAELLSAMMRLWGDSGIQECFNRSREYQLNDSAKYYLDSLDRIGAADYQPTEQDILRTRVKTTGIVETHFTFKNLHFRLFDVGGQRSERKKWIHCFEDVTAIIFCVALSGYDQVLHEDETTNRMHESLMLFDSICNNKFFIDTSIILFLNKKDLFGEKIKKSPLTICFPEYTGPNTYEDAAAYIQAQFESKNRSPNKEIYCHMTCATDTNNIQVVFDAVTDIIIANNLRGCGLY
HSV replic up = increases HSV replication in cells; HSV replication augmentation in cells, fold increase; 220,000 tested, 0.005% active; maximum fold increase;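 active means peak rise of 1.5-fold or more in the series; tested in PC3 cells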;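 further: first round at 10 µM; read as green reporter fluorescence; hits show the peak of a series up to 25 µM; 1 = signal of infected wells without compound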
PKD1 inh = inhibitors of human PKD1 kinase; 200,000 tested, 0.056% active; inhibition, %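 (about 10 µM by stock and volumes)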; Q15139; PKD1 kinase fluorescence polarization assay;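 active means inhibition of 50% or more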;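 further: controls were vehicle for no effect and a reference inhibitor for full effect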
INS promoter inh cell count = recorded beside INS promoter inh, whose call it bears; normalized cell count, %; measured here: cell count, toxicity; reference of the scale not given here;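 cells exposed to compound for 48 h; stained nuclei by imaging scaled within each plate; lower means fewer cells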
HSV replic up primary fold = second read-out of HSV replic up, no call of its own (marks repeat the call); fold increase; compound at 10 µM; measured here: primary screen fold increase 10 uM; tested in PC3 cells;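 GFP signal in the first replicate; 1 = infected wells without compound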
* = called active by the depositor; i = inactive; x = no result given; [ ] = remark or other dose.

Structure | GALR2 ag | INS promoter inh | INS promoter inh cell count | RGS16-Gao | HSV replic up | HSV replic up primary fold | PKD1 inh
CCc1cc2ccc(C)cc2nc1SCC(=O)c1ccc(NC(C)=O)cc1 | -1.4 | -9 | 141 | 99 | i | 0.84 | 0
COc1cccc(/C=N/NC(=O)C(=O)NCc2cccnc2)c1OC | x | x | x | 99 | i | 0.85 | -4
COc1ccc(/C=N\NC(=O)C2=NNC(=O)C2C)cc1 (stereo unspecified) | -2.9 | 66 | 58 | 105 | i | 1 | -6
N#Cc1cn(CCOC(=O)c2cccc(C(F)(F)F)c2)c(=O)[nH]c1=O | x | x | x | 103 | i | 0.73 | 0
CCCC(=O)N1CCN(c2ccc(NC(=O)c3ccc(OCC)c([N+](=O)[O-])c3)cc2)CC1 | -2.3 | -43 | 102 | 97 | x | x | -3
CCOC(=O)c1c(NC(=O)CSC(=S)N2CCOCC2)sc(C)c1C | 1.4 | 4 | 85 | 105 | i | 0.92 | -2
COc1ccc(C(=O)C2CCCN(Cc3cccn3-c3cccnc3)C2)cc1OC (stereo unspecified) | x | x | x | 99 | i | 1.2 | 10
Cc1cccc2c1nc(-c1ccccc1)n1cnnc21 | 0.1 | -3 | 100 | 100 | i | 0.9 | -11
COc1ccc2c(c1)c(/C=N/Nc1ccc(C(=O)O)cc1)c(C)n2C | x | x | x | 100 | i | 1.2 | x
O=C(Nc1ccc(-c2nc3ccccc3o2)cc1)c1ccc(N2C(=O)C3C4C=CC(C4)C3C2=O)cc1 (stereo unspecified) | 2.3 | x | x | 106 | i | 0.77 | -2
CC(C)CC(=O)N1CCN(C(=O)c2ccco2)CC1 | x | -26 | 111 | 101 | i | 0.94 | -6
Cc1cc(-n2c(C)cc(C(=O)COc3ccc4ccc(=O)oc4c3)c2C)no1 | -1.4 | x | x | 100 | i | 1.1 | -11
COc1ccc(/C=N/OC(=O)Nc2ccccc2)cc1[N+](=O)[O-] | -0.4 | 31 | 120 | 110 | i | 1 | 17
CCN(C(=O)CSc1nnc(Nc2ccccc2C)s1)C1CCS(=O)(=O)C1 (stereo unspecified) | -2.4 | 26 | 97 | 87 | i | 0.89 | 0
O=C(N/C(=C\c1ccc([N+](=O)[O-])cc1)C(=O)N1CCOCC1)c1ccccc1 | x | -7 | 126 | 109 | i | 0.96 | -2

Additional results follow:
Structure | GALR2 ag | INS promoter inh | INS promoter inh cell count | RGS16-Gao | HSV replic up | HSV replic up primary fold | PKD1 inh
CCCN1C(=O)/C(=C\C=C2/C=CN(CC)c3ccccc32)SC1=S | -2.1 | 6 | 47 | 97 | i | 1.8 | 6
CNC(=O)/C(C#N)=C/c1cc(C)n(-c2ccc(N3CCOCC3)cc2)c1C | x | x | x | 216*[activator] | i | 1 | x
O=c1c(-c2nc3ccccc3s2)cccn1Cc1ccccc1 | 31* | -140 | 128 | 101 | i | 1.2 | -10
O=C(Nc1cccc(Cl)c1)Nc1ccccc1NS(=O)(=O)c1cccs1 | -0.9 | 23 | 89 | 107 | i | 1 | 7
COc1ccc(-n2nnc3c(SCC(=O)c4ccccc4)ncnc32)cc1 | -0.9 | 21 | 136 | 98 | i | 0.95 | 5
CCCC1(C(=O)OCC)NC(c2ccc(OC)cc2OC)C2C(=O)N(c3ccccc3)C(=O)C21 (stereo unspecified) | -2.3 | 33 | 97 | 55 | i | 0.99 | -7
Cc1ccc(C(=O)Nn2cnnc2)cc1S(=O)(=O)N1CCOCC1 | x | x | x | 102 | i | 0.87 | x
O=C(Nc1ccc2nc3n(c(=O)c2c1)CCCC3)c1cccc([N+](=O)[O-])c1 | 1.1 | 0 | 129 | 106 | i | 0.8 | -3
COc1ccc(CCNC(=O)COC(=O)/C=C/c2cc(OC)c(OC)c(OC)c2)cc1OC | x | 46 | 143 | 102 | i | 0.96 | 3
Cc1ccccc1OCC(=O)NNC(=O)C1CCCCC1C(=O)O (stereo unspecified) | -0.3 | 36 | 119 | 95 | i | 0.94 | -4
Cc1ccc(NC(=O)CCC(=O)NNC(=O)NC2CCCCC2)c(C)c1 | x | -18 | 81 | 96 | i | 0.96 | -3
CCC(c1ccccc1)c1nnc(NC(=O)c2ccco2)s1 (stereo unspecified) | x | x | x | 101 | i | 0.91 | x
C=CCn1c(=NC(=O)c2cccs2)sc2cccc(OC)c21 | x | x | x | 98 | i | 1 | x
CCOC(=O)C1=C(C)NC2=C(C(=O)C(C(=O)OCC)C(c3ccccc3OC)C2)C1c1ccccn1 (stereo unspecified) | 0.7 | 16 | 47 | 100 | i | 1 | -7
O=c1nc(N2CCCC2)nc(Nc2ccccc2)[nH]1 | -0.9 | 40 | 99 | 102 | x | x | 13

10 compounds out of the list, arranged by length of the SMILES, ascending.
Structure | GALR2 ag | INS promoter inh | INS promoter inh cell count | RGS16-Gao | HSV replic up | HSV replic up primary fold | PKD1 inh
O=c1nc(N2CCCC2)nc(Nc2ccccc2)[nH]1 | -0.9 | 40 | 99 | 102 | x | x | 13
O=c1c(-c2nc3ccccc3s2)cccn1Cc1ccccc1 | 31* | -140 | 128 | 101 | i | 1.2 | -10
Cc1ccccc1OCC(=O)NNC(=O)C1CCCCC1C(=O)O (stereo unspecified) | -0.3 | 36 | 119 | 95 | i | 0.94 | -4
Cc1ccc(C(=O)Nn2cnnc2)cc1S(=O)(=O)N1CCOCC1 | x | x | x | 102 | i | 0.87 | x
Cc1ccc(NC(=O)CCC(=O)NNC(=O)NC2CCCCC2)c(C)c1 | x | -18 | 81 | 96 | i | 0.96 | -3
CCCN1C(=O)/C(=C\C=C2/C=CN(CC)c3ccccc32)SC1=S | -2.1 | 6 | 47 | 97 | i | 1.8 | 6
CNC(=O)/C(C#N)=C/c1cc(C)n(-c2ccc(N3CCOCC3)cc2)c1C | x | x | x | 216*[activator] | i | 1 | x
COc1ccc(CCNC(=O)COC(=O)/C=C/c2cc(OC)c(OC)c(OC)c2)cc1OC | x | 46 | 143 | 102 | i | 0.96 | 3
CCCC1(C(=O)OCC)NC(c2ccc(OC)cc2OC)C2C(=O)N(c3ccccc3)C(=O)C21 (stereo unspecified) | -2.3 | 33 | 97 | 55 | i | 0.99 | -7
CCOC(=O)C1=C(C)NC2=C(C(=O)C(C(=O)OCC)C(c3ccccc3OC)C2)C1c1ccccn1 (stereo unspecified) | 0.7 | 16 | 47 | 100 | i | 1 | -7

Following part
Structure | GALR2 ag | INS promoter inh | INS promoter inh cell count | RGS16-Gao | HSV replic up | HSV replic up primary fold | PKD1 inh
Cc1ccc(CN2C(=O)C3CCCN3c3ccc(C#N)cc32)cc1 (stereo unspecified) | -0.1 | 35 | 55 | 106 | i | 0.72 | -8
O=c1cnn(-c2ccc(Cl)cc2Cl)c(-c2ccccc2)c1 | 1.4 | 25 | 74 | 81 | x | x | -14
O=[N+]([O-])c1ccc(NC(=S)NCCc2ccccc2)cc1 | -0.4 | -56 | 112 | 101 | i | 0.65 | -8
CN(Cc1cn(C)nc1-c1ccccc1F)C1CCOC1 (stereo unspecified) | x | x | x | 95 | i | 0.98 | 0
CCC(=O)Nn1cnc2c(c1=O)C1(CCCCC1)Cc1ccccc1-2 | -2.4 | 14 | 64 | 88 | i | 0.89 | -2
Cc1ccc(CSc2nnc([C@@H]3CCCN3C(=O)OC(C)(C)C)o2)cc1 | x | x | x | 101 | i | 0.97 | x
O=C(COC(=O)c1ccc([N+](=O)[O-])s1)Nc1cccc(S(=O)(=O)NC2=NCCCCC2)c1 | x | x | x | 100 | i | 0.91 | x
COc1cccc(OC(=O)c2cc3ccccc3oc2=O)c1 | x | -65 | 120 | 95 | i | 0.97 | -5
CC(/C=N/n1c(C2CCCCC2)n[nH]c1=S)=C\c1ccccc1 | -2.6 | 0 | 98 | 100 | i | 0.74 | 4
Cc1noc(C)c1S(=O)(=O)N1CCC(C(=O)NC2CCCc3ccccc32)CC1 (stereo unspecified) | -3.6 | -29 | 66 | 98 | i | 1 | -8
CC(C)(C)C(=O)Nc1nc(=S)ss1 | -0.3 | x | x | 80 | i | 0.89 | 6
CCN(CC)C(=O)CSc1nc(C)cc(C)n1 | x | 0 | 112 | 101 | i | 0.95 | 2
CCCN1CCN(C(=S)Nc2ccc3nc(N4CCN(CC)CC4)cc(C)c3c2)CC1 | x | x | x | 99 | i | 0.82 | -1
N#Cc1c(-c2ccccc2)nc(SCc2nc(N)nc(N3CCCCC3)n2)[nH]c1=O | -0.8 | i | 85 | 106 | i | 0.93 | -4
CCOc1cc(-c2cc(-c3ccc(OC)cc3)nc(N)c2C#N)ccc1O | 1.6 | 19 | 101 | 97 | i | 0.78 | 3

Following part:
Structure | GALR2 ag | INS promoter inh | INS promoter inh cell count | RGS16-Gao | HSV replic up | HSV replic up primary fold | PKD1 inh
O=C(NC(=S)Nc1ccc(CN2CCOCC2)cc1)c1ccccc1[N+](=O)[O-] | -0.4 | x | x | 103 | i | 1.2 | 0
CCCS(=O)(=O)N1CCN(C(=O)c2cccnc2)CC1 | -1.5 | x | x | 73 | i | 0.88 | -11
CCOc1cc(CNCc2cccnc2)ccc1OCC(=O)NC(C)(C)C | x | x | x | 106 | i | 0.97 | -1
Cc1cc(C)cc(N(CC(=O)NCc2ccco2)C(=O)CCC(=O)Nc2nccs2)c1 | x | -4 | 66 | 110 | i | 0.91 | -4
Cc1ccc2[nH]c(=O)c(-c3noc(CC(C)C)n3)cc2c1 | x | x | x | 97 | i | 1.1 | x
CNCc1ccc(OCc2ccccc2)c(OC)c1 | -1.7 | x | x | 108 | i | 1.1 | -14
O=C(/C=C/c1ccc(F)cc1)NC(=S)N1CCN(Cc2ccccc2)CC1 | x | x | x | 102 | i | 1.1 | x
C/C(=N/NC(=O)c1cccs1)c1ccco1 | 0.1 | -14 | 127 | 104 | i | 0.95 | 10
N#Cc1nc(COc2ccccc2)oc1N1CCCC1 | -1.8 | 29 | 48 | 107 | x | x | -12
COCCn1cc(C(=O)c2ccccc2OCC(=O)Nc2cc(C)on2)cc(C#N)c1=O | -0.6 | 12 | 156 | 251 | i | 0.95 | -9
CCC(=O)NC1(C(F)(F)F)C(=O)Nc2c1c(=O)n(C)c(=O)n2C (stereo unspecified) | -0.7 | x | x | 98 | i | 0.87 | 2
COc1cc(OC)cc(C(=O)N[C@H](C(=O)OCC(=O)N2CCc3ccccc32)C(C)C)c1 | x | x | x | 99 | i | 0.93 | 4
O=C(N/N=C/c1ccc(OCC(=O)N2CCCCC2)cc1)c1ccccc1O | 0.3 | x | x | 97 | i | 0.98 | 6
CC1=C(C(=O)OC(C)C)C(c2ccc(N(C)C)cc2)C2=C(CC(C)(C)CC2=O)N1 (stereo unspecified) | -0.5 | x | x | 100 | i | 0.93 | -2
Brc1ccccc1OCCCN1CCOCC1 | 0.5 | 38 | 41 | 105 | i | 0.83 | -1

The list continues.
Structure | GALR2 ag | INS promoter inh | INS promoter inh cell count | RGS16-Gao | HSV replic up | HSV replic up primary fold | PKD1 inh
COc1ccc(OC)c(S(=O)(=O)Nc2c(C)cccc2C)c1 | x | 26 | 67 | 94 | i | 1.2 | -1
Cc1ccc(NC(=O)CCC(=O)NNC(=O)COc2cccc3ccccc23)c(C)c1 | -2.3 | x | x | 95 | i | 0.77 | -6
Cc1nnc(NNS(=O)(=O)c2ccc(Cl)cc2)[nH]c1=O | x | x | x | 99 | i | 0.98 | x
CCCCNC(=O)CCC(=O)NNc1nc2ccccc2c2nc(-c3ccccc3)nn12 | -1.7 | 43 | 155 | 105 | i | 0.95 | 3
CCC(=O)Nc1nnc(-c2ccccn2)o1 | 0.9 | x | x | 95 | i | 0.95 | -1
COc1ccc(NC(=O)c2scc(S(=O)(=O)C(C)C)c2N)cc1 | x | x | x | 101 | i | 0.9 | x
O=C(Nc1cnccn1)c1cccnc1 | -1.1 | 54 | 88 | 103 | i | 1.1 | 0
CC(C)(C)OC(=O)N1CCC2(CC1)C(C#N)=C(N)OC1=C2C(=O)CCC1 | x | 60 | 79 | 101 | i | 1 | -3
CN(C)C(=O)CCCCCCCCC(=O)N(C)C | x | x | x | 107 | i | 0.93 | x
CCOC(=O)COc1ccc2c(c1)c(C(=O)OCC)c(C)n2CC | -0.1 | -14 | 218 | 99 | i | 0.94 | 5
CCNC(=O)C(=O)NCCc1ccc(Cl)cc1 | 0.0 | -21 | 85 | 105 | i | 0.99 | -3
CSC1=NCCN1C(=O)c1cccc(C(F)(F)F)c1 | -1.6 | x | x | 104 | i | 0.94 | 0
CC(=C/c1ccccc1)/C=C1/SC(N2CCOCC2)=NC1=O | 0.2 | -60 | 49 | 102 | x | x | -8
